VDR inhibitor: Inhibitors of the vitamin D receptor (VDR): qHTS; AID 504847, 2011; Potency, µM, inactives show max response, negative = inhibition, hits mostly inhibitors; VDR-SRC2-3 peptide fluorescence polarization, 2 h; 400,000 compounds, 0.93% hits; active means well fitted inhibition curve with a large enough effect; inconclusive means small, poorly fitted or top-dose-only effect, or another doubt; inactive means no such curve, though single readings can be large or run the other way; further: series mostly up to about 120 µM
Target sequence (P11473 whole entry, looked up): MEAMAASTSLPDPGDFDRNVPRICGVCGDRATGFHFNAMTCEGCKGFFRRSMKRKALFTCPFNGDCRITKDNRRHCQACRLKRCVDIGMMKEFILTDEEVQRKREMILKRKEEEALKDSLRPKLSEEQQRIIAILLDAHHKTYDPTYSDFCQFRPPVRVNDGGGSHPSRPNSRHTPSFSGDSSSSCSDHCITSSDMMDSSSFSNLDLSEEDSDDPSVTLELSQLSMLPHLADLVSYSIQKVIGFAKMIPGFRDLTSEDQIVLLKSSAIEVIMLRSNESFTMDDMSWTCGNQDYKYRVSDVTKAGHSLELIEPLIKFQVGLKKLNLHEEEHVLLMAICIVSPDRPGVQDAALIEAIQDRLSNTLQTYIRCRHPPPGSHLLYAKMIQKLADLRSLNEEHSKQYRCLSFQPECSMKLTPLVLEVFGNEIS
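Reagent solutions, kept cold and dark, are dispensed first; compounds are then pinned in at 23 nl, plates briefly spun, and incubated 2 h at ambient temperature. Inhibition of VDR–SRC2-3 peptide binding is read by fluorescence polarization.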
* hit, by the source's call; ? = inconclusive. On the % scale 0 is the no-effect control and ±100 the full control effect; potency means the concentration at half of the fitted maximal effect. These rows are one share of the data, so the mix of outcomes need not match the whole.

SMILES | VDR inhibitor
O=[N+]([O-])c1cccc(/C=N/N2CCN(Cc3ccccc3)CC2)c1 | 5.0%
CCN(CCCNC(=O)C1CCN(S(=O)(=O)CC)CC1)c1cccc(C)c1 | 1.8%
CCc1ccc(NC(=O)N(CCCOC(C)C)C2CCN(C(C)=O)CC2)cc1 | 10.3%
O=C(CSc1nccn1-c1ccccc1)c1ccc(Cl)cc1 | 9.5%
Cc1oc(-c2ccccc2Cl)nc1CS(=O)CC(=O)NCCCN1CC(C)CC(C)C1 (configuration not stated) | -14.8%
COc1ccc2c(c1)C(=O)C1NC(=O)NC(=O)C1(Br)N2 (configuration not stated) | 7.5%
Cc1[nH]c2c(ccc3cccnc32)c1C | 11.1%
OC(CNC1CCCC1)COc1ccc(F)cc1 (configuration not stated) | -14.6%
CC(O)C(C(=O)OCc1ccc([N+](=O)[O-])cc1)N1C(=O)c2ccccc2C1=O (configuration not stated) | -13.5%
CCn1c(CC2C(=O)Nc3ccccc32)nc2ccccc2c1=O (configuration not stated) | 3.1%
c1ccc(-c2cncnc2)nc1 | 1.4%
CC(C)(C)c1ccc(Oc2ccc(NC(=O)CCC(=O)OCC(=O)c3ccccc3)cc2)cc1 | -7.2%
CCC(C)NC(=O)Nc1ccc(F)c(Cl)c1 (configuration not stated) | -3.4%
Cc1cccc2cc(CN(Cc3ccc4c(c3)OCO4)Cc3nnnn3C3CCCC3)c(=O)[nH]c12 | -10.1%
C=CCNC(=O)COC(=O)C1CCN(S(=O)(=O)c2ccc3c(c2)OCCO3)CC1 | -2.3%

Overlap with the part before: four compounds, followed by the next part.
SMILES | VDR inhibitor
CC(C)(C)c1ccc(Oc2ccc(NC(=O)CCC(=O)OCC(=O)c3ccccc3)cc2)cc1 | -7.2%
CCC(C)NC(=O)Nc1ccc(F)c(Cl)c1 (configuration not stated) | -3.4%
Cc1cccc2cc(CN(Cc3ccc4c(c3)OCO4)Cc3nnnn3C3CCCC3)c(=O)[nH]c12 | -10.1%
C=CCNC(=O)COC(=O)C1CCN(S(=O)(=O)c2ccc3c(c2)OCCO3)CC1 | -2.3%
Nc1nonc1-n1nnc(C(=O)N/N=C/c2ccc3c(c2)OCO3)c1-c1ccccc1 | 0.9%
Cc1nn(-c2ccccc2)c(Cl)c1C(=O)NCc1cccs1 | -11.1%
OC1CCCN(Cc2cn(Cc3ccccc3)nc2-c2cc3ccccc3o2)C1 (configuration not stated) | 13.3%
O=C1CC(c2nnc(Cc3ccc(F)cc3)o2)CN1c1ccccc1 (configuration not stated) | -9.5%
CC(C)N(C)Cc1nnnn1CC(=O)NCCc1cccc(C(F)(F)F)c1 | -14.4%
CCn1ccc(C(=O)NC2=NCCS2)n1 | ?
COc1ccc(N(C(=O)Cc2cccs2)C(C(=O)NC2CCCC2)c2ccncc2)cc1OC (configuration not stated) | -9.6%
Cc1ccc(NCC(=O)c2ccccc2)cc1Cl | -5.5%
CCC(Sc1ncccc1C(=O)O)C(=O)N1CCCC1 (configuration not stated) | 10.8%
CSCC[C@H](NC(=O)OC(C)(C)C)C(=O)N1CCC(C(=O)N[C@@H](Cc2c[nH]c3ccccc23)C(=O)O)CC1 | 7.6%
Cc1cccc(NC(=O)C2C3C=CC(C4CC34)C2C(=O)O)c1 (configuration not stated) | 8.0%
CN(CC(=O)Nc1cccc(S(=O)(=O)N2CCCC2)c1)Cc1ccccc1 | -10.4%
N#CCCN/N=C(\Cc1nc2ccccc2[nH]1)c1ccccc1 | 0.2%
Cc1ccc(S(=O)(=O)N2CCCCC2)cc1NC(=O)c1cncc(Br)c1 | 1.1%
CN(C)Cc1ccccc1-c1cncnc1Nc1ccccc1 | -4.1%
N#CC1=C(N)OC2=C(C(=O)CC(c3ccccc3)C2)C1c1cccnc1 (configuration not stated) | 4.3%
Cn1c(=O)c([N+](=O)[O-])c(N2CCN(Cc3ccc4c(c3)OCO4)CC2)c2ccccc21 | -22.5%
COCCn1cnnc1SCC(=O)c1ccc(S(=O)(=O)N2CCCC2)cc1 | -10.9%
Cc1nn(Cc2ccccc2)c2c1C(c1ccco1)C(C#N)=C(N)O2 (configuration not stated) | 1.1%
Cc1cc(N2CCN(C)CC2)ccc1NC(=O)c1c2c(nc3ccccc13)CCN(Cc1ccccc1)C2 | 13.8%
Cc1ccc(SCC(=O)NCCC2=CCCCC2)cc1 | 4.4%
CCOC(=O)C1=C(C)NC(=S)NC1c1cccs1 (configuration not stated) | 8.3%
CCN(CC)C(=O)[C@H]1C[C@H](CC(=O)NCc2ccco2)C(=O)N2CCc3c([nH]c4cc(-c5ccco5)ccc34)[C@]12C | ?
On1nnc2cc(C(F)(F)F)ccc21 | -8.8%
Cc1cc(C)n2nc(CNC(=O)c3c(F)cccc3F)nc2n1 | 7.6%
CN(CC(=O)Nc1ccccc1Br)Cc1nc2ccccc2c(=O)[nH]1 | 2.7%
O=C(CCC(=O)c1cccs1)OCC(=O)c1ccccc1F | ?
Cc1ccc(C(=O)OC2CCS(=O)(=O)c3sccc32)cc1 (configuration not stated) | 10.6%
O=C(O)c1cc([N+](=O)[O-])c(Sc2nc3ccccc3[nH]2)c([N+](=O)[O-])c1 | ?
O=S(=O)(c1ccc(F)cc1)N1CCC(n2cnc3ccccc32)CC1 | ?
COc1ccc(OC)c(C2C(C(=O)Nc3ccc(F)cc3)=C(C)Nc3nc(CCCO)nn32)c1 (configuration not stated) | -7.5%
COc1ccccc1/C=C1\SC(=S)N(CCC(=O)NCCCn2ccnc2)C1=O | 5.2%
O=C(NCC(c1cccnc1)N1CCc2ccccc21)c1ccccc1Br (configuration not stated) | 10.8%
CC(C)N(C(=O)[C@H]1C[C@H](CC(=O)NCCC2=CCCCC2)C(=O)N2CCc3c([nH]c4ccc(Cl)cc34)[C@]12C)C(C)C | -17.7%
CCCN1CCN(C(=S)Nc2ccccc2C(F)(F)F)CC1 | -4.7%
CN(C)c1ncc2nc(-c3cn(C)c4ccccc34)c(=O)n(C[C@H]3CCCO3)c2n1 | -0.1%
NC(=O)CC(NC(=O)Cc1ccc(Cl)cc1)c1ccc(NCC2CC2)c([N+](=O)[O-])c1 (configuration not stated) | -13.2%
CC(C)CN(C(=O)c1cccc(F)c1)c1c(N)n(CC(C)C)c(=O)[nH]c1=O | -1.2%
COc1ccccc1CN1CCC(CNS(=O)(=O)c2cc(-c3cc(C)no3)ccc2C)CC1 | 1.3%
O=C1c2ccccc2NC(c2cnc3ccccc3n2)N1O (configuration not stated) | 2.0%
CCCN1C(C)C(C(=O)OCC)=CN(Cc2ccc(Br)cc2)S1(=O)=O (configuration not stated) | -9.7%
O=C(c1ccccc1)c1c[nH]c(C(=O)NCCCn2ccnc2)c1 | -0.3%
Cc1ccc(CSCC(=O)Nc2cc(S(=O)(=O)N3CCOCC3)ccc2OCC(F)(F)F)cc1 | 2.8%
COc1ccccc1C1(CCNS(=O)(=O)c2ccc(C)cc2)CCOC(C(C)C)C1 (configuration not stated) | 6.8%
CCN(CC)CCNC(=O)Cn1nc(Cc2cccnc2)c2ccccc2c1=O | 11.8%
Cc1ccc(OCCCC(=O)Nc2cc(S(=O)(=O)N3CCOCC3)ccc2N2CCOCC2)cc1 | 7.0%
CC(=O)N1CCc2cc(S(=O)(=O)N3CCCCC3C)ccc21 (configuration not stated) | -5.9%
Cc1ccnc(NC(=S)NC(=O)c2cccs2)c1 | -4.8%
Cc1cc(OC(=O)c2ccccc2Cl)ccc1N1C(=O)CCC1=O | -1.3%
CCCCc1ncc(/C=C(\Cc2cccs2)C(=O)O)n1Cc1ccc(C(=O)O)cc1 | 8.7%
O=C(COC(=O)Cc1ccc(F)cc1)NC(=O)NC1CCCC1 | 26.3%
O=C(c1ccc2c(c1)OCCO2)N1CCN(c2ncc(C(F)(F)F)cc2Cl)CC1 | 1.2%
Cc1noc(C)c1NC(=O)N(C)C[C@H]1Oc2ccc(NC(=O)CCC(F)(F)F)cc2C(=O)N([C@H](C)CO)C[C@@H]1C | -24.2%
Cc1cccc(NC(=O)Nc2ccncc2)c1 | -9.2%
CCN(Cc1ccccc1)C(=O)C1CCN(C(=O)Nc2ccccc2)CC1 | 11.0%
CSc1cccc(NC(=O)Nc2ccccc2)c1 | 12.2%
NS(=O)(=O)c1cccc(NC(=O)CSc2nc3ccccc3[nH]2)c1 | -4.2%
CCCCn1c(=O)[nH]c(=O)c2c(C(=O)OCC)cc(-c3cccs3)nc21 | 8.0%
Cc1ccc(S(=O)Cc2ccc(C(=O)N3CCN(C4CCCCC4)CC3)o2)cc1 (configuration not stated) | -8.5%
CCOc1ccc(CN2CCN(C(=O)c3ccco3)CC2)cc1 | -21.5%

The last 6 entries of the section before come first, to join the parts:
SMILES | VDR inhibitor
CCN(Cc1ccccc1)C(=O)C1CCN(C(=O)Nc2ccccc2)CC1 | 11.0%
CSc1cccc(NC(=O)Nc2ccccc2)c1 | 12.2%
NS(=O)(=O)c1cccc(NC(=O)CSc2nc3ccccc3[nH]2)c1 | -4.2%
CCCCn1c(=O)[nH]c(=O)c2c(C(=O)OCC)cc(-c3cccs3)nc21 | 8.0%
Cc1ccc(S(=O)Cc2ccc(C(=O)N3CCN(C4CCCCC4)CC3)o2)cc1 (configuration not stated) | -8.5%
CCOc1ccc(CN2CCN(C(=O)c3ccco3)CC2)cc1 | -21.5%
CCOC(=O)c1c(C)[nH]c(C(=O)CN(C)CC(=O)Nc2ccccc2Cl)c1C | 15.6%
CC(OC(=O)c1cccnc1Cl)C(=O)Nc1ccc(S(N)(=O)=O)cc1 (configuration not stated) | -11.6%
Cc1ccc(C)c(NC(=O)c2ccc(OC(=O)c3ccco3)cc2)c1 | 13.6%
Cc1cc(=O)oc2cc(OCC3CC(c4ccc(Br)cc4)=NO3)ccc12 (configuration not stated) | 14.2%
CCOc1ccc(NC(=O)CCC(=O)N/N=C/c2ccc3c(c2)OCO3)cc1 | -2.5%
COC(=O)N/N=C/c1ccc(-c2ccc(C)c(Cl)c2)o1 | -8.3%
COc1ccc(O)c(C(=O)c2cnc3c(c2)c(-c2ccc(F)cc2)c(C#N)c(=O)n3C)c1 | -5.7%
Nc1c(-c2nc(-c3ccc(Cl)cc3)cs2)c2ccccn2c1C(=O)c1ccc2c(c1)OCO2 | -1.3%
C=CCn1c(C)c(C(C)=O)cc(NC(=O)c2ccccc2)c1=O | -3.4%
CCC(Oc1ccc(C)cc1)C(=O)Nc1ccc(S(=O)(=O)Nc2cc(C)on2)cc1 (configuration not stated) | -6.3%
CC1CCC(=NNc2ccc(C(F)(F)F)cc2[N+](=O)[O-])CC1 (configuration not stated) | -16.8%
O=C(Nc1ccc2nc(-c3ccccn3)c(-c3ccccn3)nc2c1)N1CCCC1 | -28.5%
COc1cc(/C=N/Nc2ccc(S(N)(=O)=O)cc2[N+](=O)[O-])cc(OC)c1O | -17.7%
CCN1C[C@@H]2[C@@H]3C(=O)N(C)C(=O)[C@@H]3[C@](CC)(C(=O)OC)N2C1=NC | -3.5%
CCOC(=O)CNC(=O)c1nn(-c2cccc(OC)c2)c(=O)c2ccccc12 | -1.7%
N#CC(C#N)=c1ccc2c(c1)NC1(CCCCC1)N=2 | ?
COc1cccc(/C=C/c2onc(C)c2S(=O)(=O)N2CCC(C(=O)N3CCC(C)CC3)CC2)c1 | 12.1%
Cn1nccc1NC(=O)NC(=O)c1c(Cl)cccc1Cl | 11.2%
CCOC(=O)c1nn(-c2ccccc2C)c(=O)c(C#N)c1C | -0.2%
COc1cccc(CNC(=O)CN2C(=O)CCCc3ccccc32)c1OC | -3.5%
Cc1cccc(-n2ncc3c2CCCC3NC(=O)C2=CC(=O)CC(C)(C)O2)c1C (configuration not stated) | 8.1%
O=C(O)CN1C(=O)/C(=C\c2cc(Br)ccc2OCc2ccccc2Cl)SC1=S | ?
COC(=O)C1=C(C)Nc2c(c(=O)n(C)c(=O)n2C)C1c1ccncc1 (configuration not stated) | -15.1%
C(=N\N1CCN(Cc2ccccc2)CC1)/c1cccnc1 | -0.2%
O=C(CSc1nnc(-c2ccccc2Cl)o1)Oc1ccc(Br)cc1 | 15.3%
O=C(OCCN1CCCC1=O)c1cncc(Br)c1 | -3.3%
C=CCNC(=O)C(=O)NCC(c1ccc2c(c1)OCO2)N1CCN(c2ccc(F)cc2)CC1 (configuration not stated) | ?
O=C1NC2(CCCCC2)C(=O)N1CCS(=O)(=O)Oc1ccc(Br)cc1 | 18.3%
CC(C)OC(=O)c1c(NC(=O)C2CC=CCC2C(=O)O)sc2c1CCCCC2 (configuration not stated) | ?
Cc1cccc(NC(=O)N2CCC(CN3CCOCC3)CC2)c1C | 6.3%
CN1C(=O)CC(C(=O)Nc2ccc(F)cc2)SC1=Nc1ccc2c(c1)OCO2 (configuration not stated) | 9.4%
Cc1nnc(N/N=C/c2cc([N+](=O)[O-])c(N3CCC(C)CC3)cc2N2CCC(C)CC2)n1N | -19.1%
Oc1cccc(C=NCc2ccccc2)c1 | -1.6%
CCc1ccc(CN2CCC(C(=O)Nc3cccc(-c4nnc(C)s4)c3)CC2)o1 | 8.5%
Cc1cccc(N2CCN(C(=O)c3cc4n(n3)C(C(F)(F)F)CC(c3ccco3)N4)CC2)c1C (configuration not stated) | -5.0%
Cn1ccnc1C(=O)c1cc(=O)c2ccccc2o1 | 4.5%
CCCCc1cc(=O)oc2cc(OCC(=O)N3CCC(C(=O)O)(c4ccccc4)CC3)ccc12 | -11.7%
O=C(CSc1nc2ccccc2c(=O)n1-c1ccccc1)NC(=O)CN1CCCC1=O | 1.7%
O=C(O)CC1(CC(=O)Nc2ccccc2Br)CCCC1 | -0.6%
O=C(Cc1ccc(Cl)cc1)c1c(O)cc(O)cc1O | ?
CCCN(CCC)S(=O)(=O)c1ccc(C(=O)OCCN2C(=O)c3cccc4c(N5CCOCC5)ccc(c34)C2=O)cc1 | -10.0%
Cc1ccc(C)c(N2CCN(C(=O)CCc3nc(-c4ccccc4Br)no3)CC2)c1 | -12.9%
CCN(C(=O)CN1CCN(c2ccccc2)CC1)c1c(N)n(Cc2ccccc2)c(=O)[nH]c1=O | -11.2%

From PubChem BioAssay
